Screening results: PubChem, Broad Institute
MITF inhib: MITF inhibition | inhibition, % (no concentration beside the values) | TRPM1 promoter luciferase, luminescence, 24 h | hit rate 0.28% among 37,000;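 active = most replicates at 85% or more, or half of them and the mean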;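 note: human melanocyte line stably carrying TRPM1 promoter luciferase reporter; 0% = vehicle wells and 100% = a positive control; the first replicate is given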
YB-1 expression: YB-1 expression inhibition | U2OS, qRT-PCR YB-1 vs CDIP delta delta Cp, 16 h; hits give high values; zero = DMSO, each unit about twofold | delta delta Cp (YB-1 minus CDIP) (test concentration not listed) | hit rate 0.37% among 30,000;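 active = delta delta Cp rounded down to an integer at or above 3, about 3 SD of DMSO wells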;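 note: higher means less YB-1 transcript or more CDIP transcript relative to DMSO; stock transfer was 100 nL into about 100 µL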
PD-1 reverse act: reversal of PD-1 mediated T-cell inhibition; primary human CD4 T cells, PD-L1 beads, CellTiter-Glo 96 h; activation, % (test concentration not listed); 29,000 tested, under 10 active; AID 2316;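 active = replicate mean of 50% or more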;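 note: 0% = median vehicle wells and 100% = positive control; 100 nL library stock added to about 50 µL; numbers are from one replicate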
Shh pathway inh: Sonic Hedgehog pathway inhibition; hit rate 2.1% among 22,000; inhibition, % (test concentration not listed); AID 2313; Shh-LIGHT2 Gli-luciferase reporter, 30 h;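 active = replicate mean of 65% or more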;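 note: pathway switched on by Shh-conditioned medium diluted 1 in 25 in low serum; 100 nL library stock added to about 40 µL; 0% = median of neutral wells and 100% = positive control level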
An asterisk follows results filed as active; . = no result given. A portion of the library; count on the stated rates, not on these rows.

Preview, 3 compounds:
SMILES	MITF inhib	YB-1 expression	PD-1 reverse act	Shh pathway inh
COc1ccc(NC(=O)N(C)C[C@H]2Oc3ccc(NC(=O)Nc4ccc5c(c4)OCO5)cc3CC(=O)N([C@@H](C)CO)C[C@@H]2C)cc1	4	-0.12	0.9	-16
CCOc1ccccc1NC(=O)CSc1ncnc2sc(C)c(C)c12	45	.	-3.1	.
CCOC(=O)CSc1ncnc2scc(-c3ccc(Cl)cc3)c12	23	.	0.3	.

Results, from the first entry:
SMILES	MITF inhib	YB-1 expression	PD-1 reverse act	Shh pathway inh
COc1ccc(NC(=O)N(C)C[C@H]2Oc3ccc(NC(=O)Nc4ccc5c(c4)OCO5)cc3CC(=O)N([C@@H](C)CO)C[C@@H]2C)cc1	4	-0.12	0.9	-16
CCOc1ccccc1NC(=O)CSc1ncnc2sc(C)c(C)c12	45	.	-3.1	.
CCOC(=O)CSc1ncnc2scc(-c3ccc(Cl)cc3)c12	23	.	0.3	.
C[C@@H]1CN([C@H](C)CO)C(=O)c2cc(NC(=O)Nc3ccccc3)ccc2O[C@@H]1CN(C)S(=O)(=O)c1ccc(Cl)cc1	10	0.21	1.0	-21
C[C@H](CO)N1C[C@H](C)[C@H](CN(C)Cc2ccc3c(c2)OCO3)Oc2ccc(NC(=O)Cc3ccccc3)cc2C1=O	-7	0.69	-2.0	2
Cc1noc(C)c1NC(=O)N(C)C[C@H]1Oc2ccc(NC(=O)Cc3cn(C)c4ccccc34)cc2C(=O)N([C@@H](C)CO)C[C@H]1C	8	0.25	.	-29
Cc1noc(C)c1NC(=O)Nc1ccc2c(c1)CC(=O)N([C@@H](C)CO)C[C@H](C)[C@@H](CN(C)C(=O)Nc1ccc(F)cc1)O2	-5	0.33	1.1	-6
O=C1c2ccccc2C(=O)N1Cc1nc(-c2ccccn2)no1	-46	.	3.4	.
Cc1noc(C)c1NC(=O)Nc1ccc2c(c1)C(=O)N([C@H](C)CO)C[C@@H](C)[C@H](CN(C)S(=O)(=O)c1ccc(F)cc1)O2	-8	0.41	0.7	-17
Cc1noc(C)c1NC(=O)N(C)C[C@H]1Oc2ccc(NS(C)(=O)=O)cc2C(=O)N([C@@H](C)CO)C[C@@H]1C	0	-0.18	.	-22
Cc1ccc(S(=O)(=O)N(C)C[C@H]2Oc3c(NC(=O)c4ccncc4)cccc3C(=O)N([C@H](C)CO)C[C@@H]2C)cc1	-5	-0.59	2.6	-184
O=C(COc1ccc(F)cc1)Nc1sc2c(c1C(=O)NC1CCS(=O)(=O)C1)CCCC2 (stereo not drawn)	-5	.	-1.6	.
NNC(=O)CCc1ccccc1	-2	-0.071	2.0	.
C[C@@H]1CN([C@H](C)CO)C(=O)Cc2cc(NC(=O)Nc3ccc(F)cc3)ccc2O[C@H]1CN(C)Cc1ccc(C(F)(F)F)cc1	23	0.32	.	-18
CC(C)NC(=O)N(C)C[C@H]1Oc2ccc(NS(=O)(=O)c3ccccc3)cc2C(=O)N([C@H](C)CO)C[C@H]1C	2	0.15	.	-4
CCOC(=O)c1cnn2c(N)c(C#N)cnc12	-16	0.36	0.4	7
CC(C)NC(=O)Nc1ccc2c(c1)C(=O)N([C@H](C)CO)C[C@H](C)[C@H](CN(C)C(=O)Nc1ccc(F)cc1)OCCCC[C@@H](C)O2	-5	0.11	-0.6	-3
NC(=O)CSc1oc(-c2ccccc2)nc1S(=O)(=O)c1ccccc1	0	.	1.2	.
C[C@@H]1CCCCO[C@@H](CN(C)C(=O)NC2CCCCC2)[C@@H](C)CN([C@H](C)CO)C(=O)c2cc(NC(=O)c3ccccc3)ccc2O1	4	0.081	1.5	-5
COC(=O)c1cc(OC)c(OC)cc1NC(=O)C(C)Oc1ccc(C(C)(C)C)cc1 (stereo not drawn)	64	.	-2.3	.
O=C(CSc1n[nH]c(-c2ccccc2)n1)Nc1ccc(Br)cc1	0	.	0.1	.
CC(C)NC(=O)Nc1cccc2c1O[C@H](CN(C)Cc1ccc(C(F)(F)F)cc1)[C@H](C)CN([C@H](C)CO)C2=O	-2	-0.24	0.6	18
CC1=NNC(=O)C1Oc1ccc(Cl)cc1Cl (stereo not drawn)	1	0.23	0.0	3
COC(=O)c1cc(C(=O)OC)cc(-n2c(C)cc(C(=O)CSc3nc(C)cc(C)c3C#N)c2C)c1	-10	.	0.7	.

Full records as entered above. Values in the order: MITF inhib	YB-1 expression	PD-1 reverse act	Shh pathway inh
CC(C)NC(=O)N(C)C[C@H]1Oc2ccc(NS(=O)(=O)c3ccccc3)cc2C(=O)N([C@H](C)CO)C[C@H]1C in the list: 2	0.15	.	-4
CC(C)NC(=O)Nc1ccc2c(c1)C(=O)N([C@H](C)CO)C[C@H](C)[C@H](CN(C)C(=O)Nc1ccc(F)cc1)OCCCC[C@@H](C)O2 in the list: -5	0.11	-0.6	-3
COC(=O)c1cc(C(=O)OC)cc(-n2c(C)cc(C(=O)CSc3nc(C)cc(C)c3C#N)c2C)c1 in the list: -10	.	0.7	.
CC(C)NC(=O)Nc1cccc2c1O[C@H](CN(C)Cc1ccc(C(F)(F)F)cc1)[C@H](C)CN([C@H](C)CO)C2=O in the list: -2	-0.24	0.6	18
C[C@@H]1CCCCO[C@@H](CN(C)C(=O)NC2CCCCC2)[C@@H](C)CN([C@H](C)CO)C(=O)c2cc(NC(=O)c3ccccc3)ccc2O1 in the list: 4	0.081	1.5	-5

Later entries
SMILES	MITF inhib	YB-1 expression	PD-1 reverse act	Shh pathway inh
C[C@H](CO)N1C[C@H](C)[C@@H](CN(C)Cc2ccc3c(c2)OCO3)Oc2ccc(NC(=O)CCN3CCOCC3)cc2C1=O	-7	0.1	0.4	12
O=C1CC(SCc2nc3ccccc3[nH]2)C(=O)N1c1ccc(F)cc1 (stereo not drawn)	-3	.	0.4	.
CNC[C@@H]1Oc2c(NS(=O)(=O)c3ccc(C)cc3)cccc2C(=O)N([C@H](C)CO)C[C@H]1C	-7	0.18	2.8	-20
C[C@H]1CN([C@@H](C)CO)C(=O)c2cc(NC(=O)CCN3CCOCC3)ccc2O[C@@H]1CN(C)C(=O)NC1CCCCC1	-11	-0.9	1.3	.
O=C(CCCn1cc([N+](=O)[O-])cn1)Nc1ccc(F)cc1	-22	.	-0.5	.
O=C(COc1cccc(C(F)(F)F)c1)NCc1ccco1	13	.	-6.2	.
Cc1ccc(S(=O)(=O)Nc2ccc3c(c2)C(=O)N([C@@H](C)CO)C[C@@H](C)[C@@H](CN(C)CC2CCCCC2)O3)cc1	1	-0.49	-0.8	11
NC(=NCc1ccc(Cl)cc1Cl)NC(=O)c1nc(Cl)c(N)nc1N	-2	0.09	.	58
O=C(/C=C/c1ccccc1)CC(O)CCc1ccccc1 (stereo not drawn)	-7	0.098	1.5	-17
OC1(/C=C/CN2CCCCC2)CCCCC1	9	0.021	0.1	12
Cc1ccc(S(=O)(=O)N(C)C[C@H]2Oc3ccc(NS(=O)(=O)c4cccs4)cc3CC(=O)N([C@@H](C)CO)C[C@@H]2C)cc1	8	-0.3	0.7	.
CNC[C@@H]1Oc2ccc(NC(=O)Nc3ccc(C(F)(F)F)cc3)cc2C(=O)N([C@H](C)CO)C[C@@H]1C	-4	-0.014	-0.5	.
C[C@H](CO)N1C[C@H](C)[C@@H](CN(C)Cc2ccccc2)Oc2ccc(NC(=O)Cc3cn(C)c4ccccc34)cc2C1=O	24	0.25	-0.8	16
CCOc1ccc(OCC(=O)Nc2cc(C)c(Cl)cc2OC)cc1	2	.	1.7	.
COc1ccc(NC(=O)Nc2ccc3c(c2)CC(=O)N([C@H](C)CO)C[C@@H](C)[C@@H](CN(C)C(=O)Nc2cccc4ccccc24)O3)cc1	-19	0.52	-1.8	44
C[C@@H]1CN([C@@H](C)CO)C(=O)c2cc(NS(=O)(=O)c3ccc(F)cc3)ccc2O[C@H]1CN(C)S(=O)(=O)c1ccccc1	-7	0.27	-1.3	7
COc1ccc(NC(=O)Nc2ccc3c(c2)C(=O)N([C@H](C)CO)C[C@H](C)[C@H](CN(C)C(=O)CCC(F)(F)F)OCCCC[C@@H](C)O3)cc1	-4	-0.45	-0.3	.
Cn1c(SCC(=O)Nc2cc(C(F)(F)F)ccc2Cl)nnc1-c1cnccn1	8	.	-1.0	.
C[C@H]1CN([C@@H](C)CO)C(=O)c2cccc(NC(=O)CCCCCC(=O)Nc3ccccc3N)c2O[C@@H]1CN(C)S(C)(=O)=O	-10	-0.26	-1.0	.
COc1ccc(S(=O)(=O)Nc2cccc3c2O[C@H](CN(C)S(=O)(=O)c2cccs2)[C@@H](C)CN([C@@H](C)CO)C3=O)cc1	0	-0.5	0.8	1
COc1ccc(N(C(=O)c2cccnc2)S(=O)(=O)c2cccs2)cc1	-13	.	1.2	.
C[C@H]1CN([C@@H](C)CO)C(=O)c2cc(NC(=O)CCC(F)(F)F)ccc2O[C@@H]1CN(C)Cc1ccc(C(=O)Nc2ccccc2N)cc1	0	-0.46	-0.2	.
CNC[C@@H]1Oc2ccc(NC(=O)Nc3ccc(C(F)(F)F)cc3)cc2C(=O)N([C@H](C)CO)C[C@H]1C	-2	0.51	-1.6	.
COc1ccc(NC(=O)CSc2nc(-c3cccs3)cc(-c3ccsc3)c2C#N)cc1OC	48	.	-6.3	.
COc1ccc(S(=O)(=O)Nc2cccc3c2O[C@@H](CN(C)S(=O)(=O)c2ccc(Cl)cc2)[C@@H](C)CN([C@H](C)CO)C3=O)cc1	42	0.23	-1.4	13
C[C@@H]1CN([C@H](C)CO)C(=O)c2cc(NC(=O)NC3CCCCC3)ccc2O[C@H]1CN(C)Cc1ccc(Oc2ccccc2)cc1	2	0.64	-1.3	.
Cc1ccc(S(=O)(=O)Nc2cccc3c2O[C@@H](CN(C)Cc2ccc(-c4ccccc4)cc2)[C@H](C)CN([C@@H](C)CO)C3=O)cc1	7	0.37	1.0	-18
C[C@H](CO)N1C[C@H](C)[C@H](CN(C)Cc2ccc(-c3ccccc3)cc2)Oc2ccc(NC(=O)CCCCCC(=O)Nc3ccccc3N)cc2CC1=O	45	-0.12	-2.6	.
CNC[C@H]1Oc2ccc(NC(=O)NC3CCCCC3)cc2CC(=O)N([C@@H](C)CO)C[C@H]1C	-12	-0.025	0.8	-7
C[C@H](CO)N1C[C@H](C)[C@@H](CN(C)CC2CCCCC2)Oc2c(NC(=O)c3nc4ccccc4s3)cccc2C1=O	48	-0.11	-6.6	-4
CCCCCC[C@H](O)[C@@H]1C[C@@H](O)C2=C(O1)[C@@H](O)CCC2=O	-1	-0.045	5.4	-27
Cc1noc(C)c1NC(=O)N(C)C[C@H]1Oc2ccc(NC(=O)Cn3cnnn3)cc2C(=O)N([C@H](C)CO)C[C@H]1C	11	0.17	1.0	.
C[C@@H]1CCCCO[C@H](CN(C)S(=O)(=O)c2cccs2)[C@@H](C)CN([C@H](C)CO)C(=O)c2cc(NC(=O)c3ccncc3)ccc2O1	-12	0.1	0.3	-1
C[C@H]1CN([C@@H](C)CO)C(=O)c2cc(NC(=O)Nc3ccccc3)ccc2O[C@H]1CN(C)Cc1ccccc1	-18	0.037	1.5	.
C[C@@H]1CN([C@@H](C)CO)C(=O)c2cc(NS(=O)(=O)c3ccccc3)ccc2O[C@H]1CN(C)Cc1ccc(C(F)(F)F)cc1	-10	0.05	-0.9	-1
CCCNC(=O)N(C)c1nncnc1C(=O)NC	-16	0.024	0.3	11
C[C@H]1CN([C@@H](C)CO)C(=O)c2cccc(NS(=O)(=O)c3ccc(F)cc3)c2O[C@H]1CN(C)S(=O)(=O)c1cn(C)cn1	-12	-0.67	.	-60
C[C@H]1CN([C@@H](C)CO)C(=O)c2cccc(NS(=O)(=O)c3cccs3)c2O[C@H]1CN(C)C(=O)Nc1ccc(F)cc1	5	-0.49	.	-18
OC(CCCN1CCCCC1)(c1ccccc1)c1ccccc1	-2	-0.14	.	2
C[C@@H]1CN([C@@H](C)CO)C(=O)c2cccc(NC(=O)C3CCOCC3)c2O[C@@H]1CN(C)Cc1ccc(C(=O)Nc2ccccc2N)cc1	6	-0.25	-2.2	.
CCn1c(SCC(=O)c2ccc(Br)cc2)nnc1-c1ccncc1	-5	.	-0.1	.
C[C@H]1CN([C@@H](C)CO)C(=O)c2cccc(NS(=O)(=O)c3ccc(Cl)cc3)c2O[C@@H]1CN(C)C(=O)NC1CCCCC1	-1	-0.64	1.7	-45
COc1ccc(NC(=O)N(C)C[C@H]2Oc3c(NC(=O)Nc4c(C)noc4C)cccc3C(=O)N([C@H](C)CO)C[C@@H]2C)cc1	-3	-0.28	1.4	40
C[C@H](CO)N1C[C@H](C)[C@@H](CN(C)Cc2ccc(C(=O)Nc3ccccc3N)cc2)Oc2ccc(NS(=O)(=O)c3ccc(Cl)cc3)cc2C1=O	5	0.48	2.4	.
CC(C)NC(=O)Nc1ccc2c(c1)CC(=O)N([C@@H](C)CO)C[C@@H](C)[C@@H](CN(C)Cc1ccc(C(=O)O)cc1)O2	5	-0.3	1.4	-23
Cc1cc(C(=O)Nc2cccc3c2O[C@@H](CN(C)C(=O)Nc2ccc4c(c2)OCO4)[C@@H](C)CN([C@H](C)CO)C3=O)n(C)n1	-29	0.058	.	-23
Cc1noc(C)c1NC(=O)N(C)C[C@H]1Oc2ccc(NC(=O)CCN3CCOCC3)cc2C(=O)N([C@H](C)CO)C[C@@H]1C	-7	-0.08	.	-24
O=C(CN1C(=O)c2cccc3cccc1c23)Nc1cccnc1	15	.	1.7	.
